# Screening data (PubChem BioAssay)
# HIV TAR-Tat: TAR RNA-Tat peptide displacers, HIV-1, primary screen, biochemical, FRET, FAM/TAMRA-labeled Tat; HIV-1 TAR RNA, Tat peptide displacement FRET; hits give high values; z-score (test concentration not listed); hit rate 0.6% among 100,000;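 note: score is relative to mean and SD of negative controls; some compounds called inactive have numbers as strong as hits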
# CDC25B CDK2 inh: primary biochemical HTRF screen for blockers of M-phase inducer phosphatase 2 binding to CDK2/cyclin A; z-score (no concentration beside the values); P30305+P24941; HTRF CDC25B-CDK2/CyclinA binding, anti-His/anti-Flag; hits give high values; AID 1259370, 2018; hit rate 0.72% among 94,000;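 note: score is relative to mean and SD of negative controls; strong numbers were not always called active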
# Active calls of the source: *; . = no result given.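 Rule for the calls: active = z-score from 3 up in half or more of its runs; inactive = the rest.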 Compounds as they come. About 0.87% of those tested had a hit in this group.
Structure	HIV TAR-Tat	CDC25B CDK2 inh
COc1ccccc1NC(=O)N1CCC2(CC1)Nc1cc(F)ccc1-n1cccc12	0.1	.
CCOC(=O)c1ccc(Oc2coc3cc(OC)ccc3c2=O)cc1	1.35	0.22
Cc1ccc(-c2nc(-c3ccccn3)no2)cc1C	-0.09	-0.72
Cn1ncc2c(NCc3ccccc3)nc(N3CCN(C4CCCCC4)CC3)nc21	3.92	.
CCCCOC(=O)C1=C(C)NC2=C(C(=O)CC(C)(C)C2)C1c1ccc(Cl)cc1 (stereo not drawn)	0.08	0.21
Cc1nc(NC2=NCN(Cc3ccccc3Cl)CN2)nc2ccccc12	.	-0.4
CC1CCN(C(=O)c2nn(C)c3c2COc2ccccc2-3)CC1	1.21	-1.16
Cc1ccc(C2CC(c3c(O)n(C)c(=O)[nH]c3=O)=Nc3ccccc3S2)s1 (stereo not drawn)	-0.19	-3.38
CC(CCC(=O)O)[C@H]1CCC2C3C(C[C@H](O)[C@@]21C)[C@@]1(C)CC[C@@H](O)C[C@H]1C[C@H]3O (stereo partly drawn)	2.27	.
CCCCC1CCC(C(=O)Nc2nnc3n2CCS3)CC1 (stereo not drawn)	0.73	.
CC1(C)C[C@@H]1C(=O)N/C(=C\CCCCSC[C@H](N)C(=O)O)C(=O)O	2.11	.
Cc1nn(C)c(C)c1S(=O)(=O)N1CCC(C(=O)NC2CCCCC2)CC1	.	-1.8
CCOC(=O)c1c(NC(=O)CSc2nc3c([nH]c4ccccc43)c(=O)n2C)sc2c1CCC2	1.86	.
COc1ccc(C2(C(F)(F)F)N=C3Sc4cc(C)ccc4N3C(=O)N2)cc1 (stereo not drawn)	.	-1.1
COc1ccccc1OCCOc1ccc(Br)cc1/C=c1\sc2nc3ccccc3n2c1=O	.	-4.76
O=C(NC1CCCC1)c1ccc(CNc2c(NC3CCCC3)c(=O)c2=O)cc1	-1.25	-0.07
Cc1c(NC(=O)c2ccc([N+](=O)[O-])o2)cccc1-c1nc2ccccc2o1	.	0.44
COCCCNC(=O)Cn1c2ccccc2c2cn[nH]c(=O)c21	.	-1.94
CCOC(=O)N1CCC(NC(=O)c2cccn3c(=O)c4cc(Br)ccc4nc23)CC1	1.39	.
CCOC(=O)C1=C(C)NC2=C(C(=O)CCC2)C1c1cc(Cl)c(O)c(OC)c1 (stereo not drawn)	1.85	-2.72
O=C(Nc1ccc(S(=O)(=O)N2CCCC2)cc1)c1sc2ccccc2c1Cl	0.4	-6.54
N#Cc1c[nH]n2c(NC3CCCCC3)c(-c3ccccc3F)nc12	-0.01	-0.29
O=C1CCCC2=C1C(c1ccncc1)c1c(nc(SCc3ccccc3F)[nH]c1=O)N2 (stereo not drawn)	.	0.63
CCOC(=O)Cc1nnc(-c2ccc(Cl)cc2)o1	.	-2.3
CCOC(=O)CSc1nc(N)c2c(C)c(C)sc2n1	.	0.1
Cn1c(SCc2cc(=O)c3cc(Cl)ccc3[nH]2)nnc1-c1ccco1	-0.22	.
COc1ccc(CNS(=O)(=O)c2ccc(-c3ccc(=O)[nH]n3)o2)cc1	-0.06	.
O=C1CC[C@]23/C=C/C(=O)NCCCCNCCCNC(=O)/C=C/c4ccc(c2c4)O[C@@H]3C1	0.56	.
CN(C(=O)C1CCN(c2ncnc3c2nc2n3CCCCC2)CC1)c1ccc(F)cc1	0.09	.
O=C(NCC1COc2ccccc2O1)C1C2C=CC3(CN(Cc4ccccc4Cl)C(=O)C13)O2 (stereo not drawn)	.	0.63
CC(C)(C)c1cn2c3ccccc3nc2n1CCCO	.	-1.23
CCC(Sc1nnc(CSc2ncccn2)n1-c1ccc(Cl)cc1)C(=O)OC (stereo not drawn)	0.8	-0.46
COc1ccc(OC)c(C2C(C(=O)OC(C)C)=C(C)NC3=C2C(=O)CC(c2ccc(Cl)cc2)C3)c1 (stereo not drawn)	0.13	-1.06
CCOc1nc2cccnc2n(CC(=O)N2CCCC2)c1=O	0.95	.
Cc1csc2nc(COC(=O)C3CCCCC3)cc(=O)n12	17.7	.
Cc1ccccc1CSc1ncc(CO)n1Cc1ccc(F)cc1	0.74	.
Cc1ccc2cc3cc(C(=O)N4CCN(C(=O)c5ccco5)CC4)sc3nc2c1	.	-2.26
CC(=O)Nc1cccc(OCc2cc(=O)n3oc(C)cc3n2)c1	8.06*	-1.96
COc1ccc(-c2nc(S(=O)(=O)c3ccccc3)c(N3CCCCC3)o2)cc1	1.1	-0.26
CCOc1cc(C2C(C(=O)OC)=C(C)NC3=C2C(=O)CC(c2ccc(OC)cc2)C3)ccc1O (stereo not drawn)	1.62	0.1
O=C(c1cc(-c2cccs2)on1)N1CCCC1c1cccc(F)c1 (stereo not drawn)	-0.25	-2.16
O=C(Nc1ccc(-n2nccc2C(F)(F)F)cc1)c1ccc(Cl)cc1	.	0.29
Cc1ccc(C(=O)C2=C(O)C(=O)N(Cc3cccnc3)C2c2ccc(Br)cc2)o1 (stereo not drawn)	-5.08	-1.48
CCCc1nc2nc(C)cc(Nc3ccc(C)cc3Cl)n2n1	0.33	-0.28
CC1(C)NC(=O)N(CC(O)COc2cccc(Cl)c2)C1=O (stereo not drawn)	0.29	-0.21
CC1CCN(CC2CCN(C(=O)NC3CCCC3)CC2)CC1	2.36	.
Cc1cccc(N2C(=O)N(c3cc(C)cc(C)c3)C3CS(=O)(=O)CC32)c1 (stereo not drawn)	2.26	-1.32
CCCc1c(C(=O)OCC)[nH]c2c1C(=O)CC(c1ccc(F)cc1)C2 (stereo not drawn)	.	-1.62
Cc1ccc(NCC(O)Cn2nnnc2-c2ccccc2)cc1C (stereo not drawn)	0.6	-0.51
CCC1CCCCN1S(=O)(=O)c1cc2c3c(c1)CC(=O)N3CCC2 (stereo not drawn)	1.22	.

# (continued)
Structure	HIV TAR-Tat	CDC25B CDK2 inh
CC(C)=CC1C(CO)C1(C)C (stereo not drawn)	0.61	.
Cc1cc(-c2ccc(S(=O)(=O)Nc3cccc(F)c3)s2)on1	0.71	.
COC(=O)c1cc2occc2n1CC(=O)NCCC1=CCCCC1	.	-0.45
Nc1ccccc1SCC(=O)Nc1cccc2nsnc12	-2.46	-0.74
Cc1c(C(=O)C(=O)Nc2ccc(Br)cc2)c2ccccc2n1C	.	-2.03
CC1Cc2cc(S(=O)(=O)NCc3cccnc3)ccc2N1C(=O)C1CC1 (stereo not drawn)	0.34	.
O=C(c1ccccc1F)N1CCN(c2cc(=O)n3nc(-c4ccccc4)sc3n2)CC1	0.17	.
COc1ccc(OC)c(NC(=O)COCc2cc(-c3ccco3)on2)c1	0.88	.
Clc1ccc(Cc2nn3c(Cn4nnc5ccccc54)nnc3s2)cc1	1.7	-1
O=C(Nc1ccccc1Br)C1CCCN(c2nnc(-n3cccc3)s2)C1 (stereo not drawn)	1.19	.
CCn1cc(C(=O)O)c(=O)c2cc(S(=O)(=O)N3CCCCCC3)ccc21	.	-2.35
CCOC(=O)c1c(C)[nH]c(C)c1S(=O)(=O)Nc1ccc(Br)cc1F	1.33	.
COc1ccc(S(=O)(=O)N2CCN(c3cc(N4CCCC4)nc(C)n3)CC2)cc1	0.5	-2.24
Cc1cc2nc3n(c2cc1C)C(O)C=C(c1ccccc1)S3 (stereo not drawn)	0.41	-0.62
COCCNc1ncnc2scc(-c3ccc(Cl)cc3)c12	1.46	-0.2
O=C1CSc2ccc(S(=O)(=O)N3CCN(c4ncccn4)CC3)cc2N1	2.28	.
COc1ccc(-c2noc(-c3nnn(-c4ccccc4Br)c3C)n2)cc1OC	0.01	.
Cc1oc(-c2ccccc2)nc1CN1N=NC2C(=O)N(c3ccc(C(C)C)cc3)C(=O)C21 (stereo not drawn)	0.69	.
CCN(CC)CCCNC(=O)Cn1ncn2nc(-c3cccs3)cc2c1=O	-0.52	-1.29
CC(O)Cc1nsc(NC(=O)c2ccc(C(C)(C)C)cc2)n1 (stereo not drawn)	2.84	-1.72

# Next section; the last five above are carried over.
Structure	HIV TAR-Tat	CDC25B CDK2 inh
O=C1CSc2ccc(S(=O)(=O)N3CCN(c4ncccn4)CC3)cc2N1	2.28	.
COc1ccc(-c2noc(-c3nnn(-c4ccccc4Br)c3C)n2)cc1OC	0.01	.
Cc1oc(-c2ccccc2)nc1CN1N=NC2C(=O)N(c3ccc(C(C)C)cc3)C(=O)C21 (stereo not drawn)	0.69	.
CCN(CC)CCCNC(=O)Cn1ncn2nc(-c3cccs3)cc2c1=O	-0.52	-1.29
CC(O)Cc1nsc(NC(=O)c2ccc(C(C)(C)C)cc2)n1 (stereo not drawn)	2.84	-1.72
Cc1noc(-c2ccc(C)c(S(=O)(=O)Nc3ccccc3Cl)c2)n1	1.08	.
CCc1nc2nc(C)cc(N3CCN(c4cc(C)ccc4C)CC3)n2n1	0.75	-0.19
Cc1nc(-c2ccccc2)nc2[nH]c(=O)n(-c3ccccc3)c(=O)c12	.	-1.42
O=C(NC1CCCC1)C1CC(c2ccc(F)cc2)=NO1 (stereo not drawn)	-0.25	-0.39
CC(CN(C)Cc1ccccc1)OC(=O)c1ccc2c(c1)OCO2 (stereo not drawn)	-0.17	-0.79
Cc1cc(C)c(NC(=O)c2cccs2)c(C)c1NC(=O)c1cccs1	.	-1.32
Cc1ccc2oc(C(=O)N(Cc3ccc(C(C)(C)C)cc3)C3CCS(=O)(=O)C3)cc(=O)c2c1 (stereo not drawn)	-0.83	-0.08
Cn1cc(C(=O)NC2CC2)c2ccccc2c1=O	0.08	-1.49
CCn1cc(C(=O)N2CCc3ccccc32)c(=O)c2cc(S(=O)(=O)N(C)C3CCCCC3)ccc21	-1.07	-0.75
CSc1ncc(CO)n1Cc1ccc(C)cc1	1.02	.
COc1cc(C)c(C)cc1S(=O)(=O)Nc1ccc2c(c1)N(S(C)(=O)=O)CCC2	2.16	.
CCOC(=O)c1nc(Nc2ccc(F)cc2F)c2ccccc2n1	0.52	.
CC(C)CC(NC(=O)C1CCC(C)CC1)C(=O)NCc1cccs1 (stereo not drawn)	-0.6	-0.99
Cn1c(=O)c2c(-c3ccccc3)n(C3CCCC3)cc2n(C)c1=O	1.23	1.3
COc1cc(OC)c(Nc2c(C)c(C)nc3ncnn23)cc1Cl	1.34	.
COc1cc(C2C(C(=O)OC3CCCCC3)=C(C)NC3=C2C(=O)CC(C)(C)C3)ccc1O (stereo not drawn)	0.8	-0.73
COC(=O)c1cc2sccc2n1Cc1nc(-c2ccc(Cl)cc2)oc1C	-0.42	-1.81
C=CCN(c1ccccc1C(=O)NCC(=O)O)S(=O)(=O)c1ccc(C)cc1	.	-1.29
CCOC(=O)N1CCc2c(sc3c2c(=O)n(-c2ccc(Cl)cc2)c(=O)n3CC(N)=O)C1	-1.43	-1.51
CCc1nnc2c(N3CCOCC3)nc3ccccc3n12	-0.11	.
Cc1cc(Br)c(NC(N)=S)c(Br)c1	.	-1.7
NC(=O)c1sc2nc(N3CCCCC3)c3c(c2c1N)CCCC3	.	-0.7
O=C(NCc1cccs1)c1ccc(CS(=O)c2ccccc2)o1 (stereo not drawn)	-0.23	-1.41
O=S(=O)(Nc1ccc(Cl)cc1)c1ccccc1I	.	0.52
CC1=C(C(=O)OCC(C)C)C(c2cc3c(cc2Br)OCO3)CC(=O)N1 (stereo not drawn)	2.85	-1.18
O=[N+]([O-])c1ccc(Oc2n[nH]c3ccccc23)nc1	.	-3.89
Brc1ccc(-c2ccc(CNCCN3CCOCC3)o2)cc1	1.2	.
CC(C)(C)C(=O)Nc1ccc(-n2cccc(C(=O)NCCN3CCOCC3)c2=O)cc1	1.53	.
CC(=O)N(C)c1ccc(OCc2nnnn2-c2ccc(Br)cc2)cc1	-0.62	-0.53
CCCCc1nnc2sc(NC(=O)CC)nn12	2.99	-1.52
CC1CN(c2ccc(NC(=O)c3ccco3)cc2C(=O)O)CC(C)O1 (stereo not drawn)	.	-0.15
Nc1nc(Nc2ccccc2F)nc(NCc2ccccc2)c1[N+](=O)[O-]	0.3	.
CCOC(=O)C1=C(C)Nc2nc(SCC)nn2C1c1ccccc1Cl (stereo not drawn)	-0.14	-1.02
Nc1nc(SCC(=O)Nc2cccc(Cl)c2)ncc1S(=O)(=O)c1ccccc1	2.35	.
CCOc1ccccc1Nc1c(O)c(=O)c1=O	0.03	.
COc1cccc(C2=NN3C(C2)c2cc(Br)ccc2OC3c2ccncc2)c1 (stereo not drawn)	1.01	-1.23
CCN1CCN(c2csc3ccc(OC)cc3c2=O)CC1	0.14	.
CCCCCOC(=O)C1=C(C)NC2=C(C(=O)CCC2)C1c1coc2ccccc2c1=O (stereo not drawn)	0.85	-1.06
Cc1ccsc1CN(C(=O)COc1ccc(Br)cc1)C1CCS(=O)(=O)C1 (stereo not drawn)	-0.1	0.11
Cc1cc(C)c2c3c(sc2n1)C(=O)N(c1ccccc1Br)CN3	1.41	0.54

# 5 compounds picked at random from those above, as already listed:
Structure	HIV TAR-Tat	CDC25B CDK2 inh
Cc1cc(C)c2c3c(sc2n1)C(=O)N(c1ccccc1Br)CN3	1.41	0.54
Nc1nc(SCC(=O)Nc2cccc(Cl)c2)ncc1S(=O)(=O)c1ccccc1	2.35	.
CCOc1ccccc1Nc1c(O)c(=O)c1=O	0.03	.
CCN1CCN(c2csc3ccc(OC)cc3c2=O)CC1	0.14	.
COc1cccc(C2=NN3C(C2)c2cc(Br)ccc2OC3c2ccncc2)c1 (stereo not drawn)	1.01	-1.23
